High-throughput results (PubChem)
Arbovirus anti – blocks arbovirus infection; arbovirus infection cell-based antiviral screen; inhibition, % at 10 µM; 0.37% of 200,000 active; AID 1251;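 active = inhibition from about 30%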;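 note: bluetongue infection of BSR cells; cell survival read as ATP light after 72 h; 0% = infected wells without compound and 100% = uninfected wells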
Mtb H37Rv – M. tuberculosis H37Rv growth inhibitors, H37Rv strain (AID 1626); 0.95% of 220,000 active; M. tuberculosis H37Rv growth inhibition; higher % means a stronger effect; inhibition, % at 10 µM, or IC50 in µM where a hit was titrated;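 active = confirmed in a dose series; inconclusive = inhibition above 80% but not taken into the dose series; inactive = below 80% or under 30% at every dose of the series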;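 note: bacteria incubated seven days before Alamar blue readout; 0% = bacteria only wells and 100% = bacteria with antibiotic wells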
YopH inh – YopH (Yersinia) phosphatase inhibition; 0.16% of 140,000 active; inhibition, %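 (about 10 µM by stock and volumes)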; fluorescence Ex485/Em525; AID 898;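 active = inhibition of 50% or more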;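 note: controls were vehicle for no effect and minimum signal wells for full effect; inactives centre near -20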
RecA intein inh – blocks M. tuberculosis RecA intein splicing; P9WHJ3; cell-free RecA intein splicing, fluorescence; inhibition, %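 (about 9 µM by stock and volumes)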; 0.75% of 290,000 active; AID 2221; in the data active = inhibition above about 30%; inconclusive = no clear call, values can overlap the other calls;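 note: 0% = vehicle wells and 100% = reference inhibitor control wells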
Target sequence (P9WHJ3 whole entry, looked up): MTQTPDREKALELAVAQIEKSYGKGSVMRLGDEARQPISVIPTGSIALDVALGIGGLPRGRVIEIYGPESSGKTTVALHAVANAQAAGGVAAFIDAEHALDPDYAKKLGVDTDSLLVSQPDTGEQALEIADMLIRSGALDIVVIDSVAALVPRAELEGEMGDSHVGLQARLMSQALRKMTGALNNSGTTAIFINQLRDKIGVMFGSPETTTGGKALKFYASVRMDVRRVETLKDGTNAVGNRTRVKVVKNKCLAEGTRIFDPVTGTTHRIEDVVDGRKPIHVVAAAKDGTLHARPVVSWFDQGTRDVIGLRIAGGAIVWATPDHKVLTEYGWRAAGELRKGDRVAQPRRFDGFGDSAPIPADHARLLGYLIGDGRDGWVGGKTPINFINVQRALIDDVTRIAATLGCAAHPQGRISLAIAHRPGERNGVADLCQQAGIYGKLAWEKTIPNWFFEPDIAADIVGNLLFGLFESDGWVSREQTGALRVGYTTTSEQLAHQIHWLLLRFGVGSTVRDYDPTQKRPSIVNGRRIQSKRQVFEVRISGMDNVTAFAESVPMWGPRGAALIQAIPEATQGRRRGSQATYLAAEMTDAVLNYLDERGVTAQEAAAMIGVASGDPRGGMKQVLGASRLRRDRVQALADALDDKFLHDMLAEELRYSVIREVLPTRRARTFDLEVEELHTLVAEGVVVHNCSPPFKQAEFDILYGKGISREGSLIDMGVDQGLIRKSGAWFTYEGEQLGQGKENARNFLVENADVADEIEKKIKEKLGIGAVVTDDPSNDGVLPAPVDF
Mtb bLac sens – beta-lactam sensitization of Mtb H37Rv; M. tuberculosis H37Rv growth with meropenem, percent inhibition; hits of this screen are not shown here; inhibition, % at 25 µM; 0.27% of 330,000 active; AID 434955;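 active = about 74% or more and at least 40 points above the plate without the antibiotic, then above 30% in a dose series; inconclusive = first-round hits that could not be retested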;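 note: growth measured after seven days incubation then overnight dye step; 0% = bacteria only wells and 100% = bacteria with antibiotic; twin plates without the antibiotic show which effects depend on it; some results filed as inactive read as strong as hits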
Arbovirus anti repeat – second read-out of Arbovirus anti, no call of its own (marks repeat the call); inhibition, %; measured here: 10K subset replicate screen; many hits read low in the repeat;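 first of two repeat runs on a subset; 0% = infected and 100% = uninfected wells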
Active calls of the source: *; ? = inconclusive; . = no result given. Not all compounds are listed; the hit share may differ from the screen's.

SMILES	Arbovirus anti	Mtb H37Rv	YopH inh	RecA intein inh	Mtb bLac sens	others
CCOC(=O)Cc1csc(NC(=O)c2cccc(Cl)c2)n1	.	.	.	5.7	-1.2
O=C(NNc1c2ccccc2nc2ccccc12)C12CC3CC(CC(C3)C1)C2	.	7.1%	.	.	10.2
Cc1cccc(OCCn2ccnc2)c1	.	.	.	0.7	-2.2
CCCCNC(=O)OCCSCCS(=O)(=O)c1ccc(Cl)cc1	.	-7.0%	.	0.1	-6.2
CCS(=O)(=O)c1ccc2c(c1)N(S(=O)(=O)c1cccs1)CC(C(=O)O)O2 (centres undefined)	.	.	.	0.1	-2.8
O=C1C(NS(=O)(=O)c2cccs2)=C(N2CCN(c3cccc(C(F)(F)F)c3)CC2)C(=O)c2ccccc21	-16.3	4.12µM*	2.1	13.7	99.5
COc1ccc(NC(=O)/C(C#N)=C\C=C\c2ccco2)cc1	5.2	12.6%	-12.2	-2.9	-1.4
COCc1cc(C)nc2sc3c(=O)n(Cc4ccco4)nnc3c12	-0.1	2.7%	-44.0	.	.	Arbovirus anti repeat=6.2
Cn1cc(P(=S)(N2CCOCC2)N2CCOCC2)cc1P(=O)(N1CCOCC1)N1CCOCC1	1.3	-0.2%	.	-0.9	15.3
CC1CCCC(NC(=O)CCNS(=O)(=O)c2ccc(Br)cc2)C1C (centres undefined)	-2.8	-2.6%	.	-1.3	2.9
O=c1o[nH]c(-c2ccccc2)c1C1=NCCCCC1	2.7	0.9%	-47.7	-4.8	-6.0
CC(C)(Oc1ccc(Cl)cc1)C(=O)NCc1ccco1	5.5	-18.6%	-38.9	12.4	0.5	Arbovirus anti repeat=-1.1
Clc1ccccc1-c1nnc2sc(-c3ccco3)nn12	-7.6	2.8%	-14.5	0.6	6.3
CCN(CC)CC(O)Cn1c2ccccc2c2ccccc21 (centres undefined)	-0.3	9.1%	-8.7	-6.3	-11.5
COc1ccccc1CCNC(=O)c1cc(COc2cccc(C(F)(F)F)c2)on1	.	.	.	2.2	90.4
Cc1ccc(/C(N)=N/OC(=O)CCCc2ccccc2)cc1	.	.	.	1.6	-6.6
Cc1ccc(NC(=O)c2nnn(-c3cccc(C(F)(F)F)c3)c2N)cc1	-14.8	5.3%	.	-0.9	0.0
FC(F)(F)c1nc2ccccc2n2c(-c3ccc(Cl)cc3)nnc12	-7.9	-0.2%	-23.9	-0.2	-9.2
O=C(COC(=O)COc1ccccc1)Nc1ccc(S(=O)(=O)N2CCOCC2)cc1	9.6	3.8%	.	0.8	-5.1
Cc1ccc(-c2ccc3c(c2)S(=O)(=O)c2ccccc2C3=O)cc1	.	-4.3%	.	-0.2	-4.4
O=S(=O)(c1ccccc1)c1nc(-c2ccccc2)oc1NCc1cccnc1	-9.9	1.9%	-31.9	0.2	-8.2
O=C(COc1coc(CN2CCc3ccccc3C2)cc1=O)Nc1cccc(Cl)c1	.	.	.	0.8	-1.8
CCn1cc(C(=O)NCCN(C)CCc2ccccc2)c(=O)c2cc(S(=O)(=O)N(C)C)ccc21	-2.6	-6.0%	7.4	-0.9	-20.4
CC(/C=N/NC(=O)c1ccncc1)=C\c1ccco1	-5.2	?	.	1.4	98.8
CCC(=O)Nc1ccc(NC(=O)C23CC4CC(CC(C4)C2)C3)cn1	-5.5	-3.5%	-10.9	0.4	1.5
COc1ccc(NC(=O)Nc2nnc(N3CCCCC3C)s2)cc1OC (centres undefined)	0.7	.	-11.7	-2.4	4.2	Arbovirus anti repeat=-0.9
CC1(C)Cc2c(c(N3CCOCC3)nc3sc4c(=O)[nH]cnc4c23)CS1	-10.2	4.1%	-29.5	-2.5	-6.0
O=C(Nc1ccc2c(c1)OCO2)C1CCCCC1	.	.	.	-0.8	-8.5
CCN(CC)CC(=O)Nc1ccccc1SCC(=O)Nc1ccsc1C(=O)OC	27.8	3.7%	.	0.9	15.8
Cc1cc(C)nc(NC(=O)c2cc([N+](=O)[O-])cc([N+](=O)[O-])c2)n1	-6.0	-5.0%	-20.5	3.0	97.4
N/C(=N\N=C\c1ccc([N+](=O)[O-])cc1)c1nonc1N	.	1.8%	.	-1.1	3.8
O=[N+]([O-])c1ccccc1N/N=C/c1ccc2c(c1)OCO2	-9.4	-3.1%	.	-0.7	.
Cc1ccc(N2C(=O)c3cccc4c(Oc5ccccc5[N+](=O)[O-])ccc(c34)C2=O)c(C)c1	-1.2	3.9%	-10.9	2.0	-2.2
O=C(Nc1cccc(Cl)c1)OCc1cnc(Cl)s1	10.8	8.9%	-15.8	3.0	-6.9
Cc1cc(C)c2c(=O)n(CC(=O)NCCCN3CCOCC3)sc2n1	-4.5	-3.2%	-24.1	-1.9	-7.8	Arbovirus anti repeat=-9.4
Cc1ccccc1S(=O)(=O)Cc1ccc(C(=O)N2CCN(C3CCCCC3)CC2)o1	-5.4	-11.2%	-22.4	.	7.3	Arbovirus anti repeat=-0.6
O=C1CC(c2ccc(Cl)cc2)SC(N(c2ccccc2)c2ccccc2)=N1 (centres undefined)	5.4	4.3%	-10.3	5.8	-2.1
CC1CCCCN1c1cc(C#N)c(C#N)cc1[N+](=O)[O-] (centres undefined)	-2.7	-6.1%	0.4	-2.2	-4.1
Cc1cc(C)cc(CC2CC(=O)N(c3ccc4c(c3)OCCO4)C2=O)c1 (centres undefined)	-2.1	1.3%	-43.5	-1.6	8.6
CN(CC(=O)N1CCN(Cc2ccccc2)CC1)S(=O)(=O)c1ccc(Br)cc1	.	.	.	3.4	?
CCOC(=O)C1CCCN(CCc2ccccc2)C1 (centres undefined)	.	.	.	-1.6	-1.9
O=C1/C(=C/c2ccncc2)CCc2ccccc21	.	2.7%	.	13.7	.
CCOCCc1nnc(NC(=O)CS(=O)(=O)c2ccc(C)cc2)s1	.	.	.	-1.8	-5.3
CCC(CC)c1nnc(NC(=O)c2c(C)nn(Cc3ccccc3Cl)c2C)s1	-12.7	8.3%	-12.3	6.9	10.3
O=C(Cn1c(=O)n(CCCCC(=O)NC2CCCC2)c(=O)c2ccccc21)NCCC1=CCCCC1	4.7	-4.1%	-36.7	2.2	0.6
CC1CC(C)CN(C2CCN(Cc3cccnc3)CC2)C1 (centres undefined)	-0.6	-11.2%	-15.3	1.4	2.9
O=C(NCCCN1CCOCC1)c1ccc(NS(=O)(=O)c2cccc([N+](=O)[O-])c2)cc1	.	.	.	-2.6	-8.7
Cc1ccc(Nc2cc(C)nc3ncnn23)cc1	.	.	.	0.2	1.9
c1cncc(-c2nnc(C3CCCCC3)o2)c1	5.7	2.5%	-48.9	-1.8	-2.3
CC(C)c1ccc(NC2CCCN(C(=O)c3n[nH]c4c3CCC4)C2)cc1 (centres undefined)	.	.	.	-0.7	9.8
O=C(CCN1c2ccccc2Sc2ccccc21)OCc1nnc(-c2ccccc2)o1	16.0	-3.6%	-29.5	-2.1	-8.9
Cc1nc(CSc2nnc3scc(-c4ccc(Cl)cc4)n23)cs1	3.1	-2.8%	27.8	-1.1	6.2
CCOC(=O)c1[nH]c(C)c(/C(O)=C2\C(=O)C(=O)N(CCN(C)C)C2c2cccc(OC)c2OC)c1C (centres undefined)	-5.0	-0.5%	-19.5	11.4	?
CCCCNCCOCCOc1ccc(C)cc1Br	-23.3	9.1%	-16.1	0.4	0.7
O=C(NC(=S)NCC1COc2ccccc2O1)c1ccccc1 (centres undefined)	9.5	8.3%	-30.5	0.9	-7.1
Cc1nc(-n2[nH]c3c(c2=O)CCCC3)[nH]c(=O)c1Cc1ccccc1	-37.7	?	4.9	-0.6	94.5
COc1ccccc1OCc1cc(C(=O)NCc2ccc(N3CCCC3=O)cc2)no1	.	.	.	1.8	2.5
Nc1cc(N)nc(CS)n1	.	-1.9%	.	-0.5	-4.6
S=c1nc(NCCc2ccccc2Cl)c2ccccc2[nH]1	.	.	.	-2.6	5.6
O=C(CN1C(=O)c2ccc([N+](=O)[O-])cc2C1=O)Nc1ccccc1N1CCCC1	.	.	.	-3.4	-2.2

Next section.
SMILES	Arbovirus anti	Mtb H37Rv	YopH inh	RecA intein inh	Mtb bLac sens	others
COc1ccc(NC(=O)NCc2ccncc2)c(OC)c1	3.6	-3.9%	-3.9	-0.2	-6.2
Cc1cccc(-c2sc(Nc3ccccc3)n[n+]2-c2ccc(F)cc2)c1	.	.	.	-0.1	5.3
O=C(Cc1n[nH]c(=O)c2ccccc12)Nc1cc(Cl)ccc1-n1cncn1	.	.	.	-2.4	-3.6
Cc1cc(Cl)cc(Cl)c1OCCOCCN(C)C	-24.6	5.8%	-28.1	3.7	0.2
COc1ccc(CN2CCCC(N3CCc4ccccc4C3)C2)c(O)c1 (centres undefined)	.	.	.	1.8	-1.7
CCO[C@H]1OC(C(=O)N2CCCCCCC2)=C[C@@H](c2coc3ccccc3c2=O)[C@@H]1CCCO	-1.9	.	.	1.8	4.2
COc1ccc(S(=O)(=O)N2CCOC2CNC(=O)C(=O)NCCc2ccccc2OC)cc1 (centres undefined)	.	.	.	-4.9	-5.0
N/C(=N\OC(=O)Cc1ccccc1)c1ccc([N+](=O)[O-])cc1	-5.3	4.6%	-1.1	2.8	-2.3
CCC(C(=O)OCC(=O)Nc1cc(C)ccc1OC)c1ccccc1 (centres undefined)	0.7	8.7%	.	3.5	1.9
COc1ccc(C(=O)NCC(=O)N2CCN(C(=O)c3ccco3)CC2)cc1	.	.	.	-0.7	-7.4
O=[N+]([O-])c1ccc(S(=O)(=O)N2CCN(c3ccnc4cc(Cl)ccc34)CC2)cc1	.	.	.	0.3	2.4
CCC(C)[C@H](NC(=O)OC(C)(C)C)C(=O)N/N=C/C1=Cc2ccccc2OC1 (some centres undefined)	-26.2	1.2%	-13.2	7.9	-4.5
Clc1ccccc1C1=Nn2c(nnc2-c2ccncc2)SC1	58.8*	.	-35.6	-3.1	0.5
CCCCCCCCOC(=O)c1nc(Cl)c(Cl)c(N)c1Cl	-36.3	13.1%	-20.9	9.2	13.6
O=C(NC(Cc1ccccc1)c1ccc2c(c1)OCCCO2)c1ccc(F)cc1 (centres undefined)	-4.5	5.6%	-4.2	0.8	-3.3
CC(C)(C)OC(=O)NNC1CC(=O)N(c2ccccc2F)C1=O (centres undefined)	-0.8	2.1%	-12.0	-6.1	2.4
O=C(Cn1c(=O)oc2cc(S(=O)(=O)N3CCCC3)ccc21)N1CCCC1	-2.3	-1.7%	-57.6	7.5	-9.2
COCCNC(=O)Cn1c(=O)n(C)c2ccccc21	7.5	-6.1%	-14.2	0.1	-0.1
CCOC(=O)c1ccc(-c2ccc(/C=N/NC(=O)CN(c3cccc(C)c3)S(C)(=O)=O)o2)cc1	9.7	-4.2%	-11.0	-2.9	5.5
CCN(CC)S(=O)(=O)c1ccc(C(=O)NCCc2ccccn2)cc1	4.3	3.8%	.	0.8	-10.6
CCN(CC)C(=O)CSc1nc2ccsc2c(=O)n1CCCC(=O)NCCc1ccc(S(N)(=O)=O)cc1	1.6	-4.5%	.	.	-3.7
Nc1ccc(S(N)(=O)=O)cc1	.	-9.8%	.	6.0	1.1
CC(C)N1CCC(=NNc2ccc(S(=O)(=O)N3CCOCC3)cc2[N+](=O)[O-])CC1	-10.4	-3.5%	-14.1	0.2	-12.9
Cc1[nH][nH]c(=O)c1C(c1ccc2c(c1)OCO2)c1c(C)[nH][nH]c1=O	-19.2	-4.3%	.	97.8*	1.1
Cc1cc(C(=O)Nc2ccc(F)cc2)c2ccccc2n1	.	.	.	-2.8	-3.0
Cn1c(=O)n(C)c2cc(NC(=O)CCl)ccc21	1.9	-1.0%	-5.1	5.7	64.4
O=S1(=O)CCO[C@H]2Cc3ccccc3[C@H]2N1Cc1cccc(Cl)c1	.	.	.	6.1	58.6
Cn1c(-c2sccc2OCc2ccccc2)n[nH]c1=S	-6.2	-6.5%	-29.1	-0.7	-23.6
O=C(OC1CCCCC1=O)c1ccc(S(=O)(=O)Nc2ccccc2)cc1 (centres undefined)	-1.4	1.5%	.	1.0	-9.5

An excerpt from the list above, as a working copy:
SMILES	Arbovirus anti	Mtb H37Rv	YopH inh	RecA intein inh	Mtb bLac sens	others
CCN(CC)C(=O)CSc1nc2ccsc2c(=O)n1CCCC(=O)NCCc1ccc(S(N)(=O)=O)cc1	1.6	-4.5%	.	.	-3.7
Nc1ccc(S(N)(=O)=O)cc1	.	-9.8%	.	6.0	1.1
CC(C)N1CCC(=NNc2ccc(S(=O)(=O)N3CCOCC3)cc2[N+](=O)[O-])CC1	-10.4	-3.5%	-14.1	0.2	-12.9
Cc1[nH][nH]c(=O)c1C(c1ccc2c(c1)OCO2)c1c(C)[nH][nH]c1=O	-19.2	-4.3%	.	97.8*	1.1
Cc1cc(C(=O)Nc2ccc(F)cc2)c2ccccc2n1	.	.	.	-2.8	-3.0
Cn1c(=O)n(C)c2cc(NC(=O)CCl)ccc21	1.9	-1.0%	-5.1	5.7	64.4
